Screens from PubChem BioAssay.
SARS PLP yeast: qHTS of Yeast-based Assay for SARS-CoV PLP | S. cerevisiae expressing SARS-CoV PLpro, growth rescue; control for the full effect not named in the record | Potency, µM (top dose mostly 32.9 µM), for inactives: top-dose activity, positive = growth rescue | actives 0.19% (n = 330,000); further: 0% is about no effect; nearly all actives have a fitted effect of over 55% in size; growth read by luminescence after 48 h
NS1 inh: qHTS Assay for Inhibitors of Influenza NS1 Protein Function | S. cerevisiae slowed by influenza A NS1, growth recovery by OD600 | Potency, µM (top dose mostly 46.1 µM), for inactives: at the highest dose activity, positive = more growth | actives 0.4% (n = 270,000) | AID 2326, 2010; further: actives are rising curves; nearly all actives have a fitted effect of over 50% in size
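OD600 was taken as the measure of yeast growth restored by compound in an NS1-expressing S. cerevisiae strain. Cells had been washed out of glucose medium and diluted 1:100 into galactose -URA medium, pH 6.0.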
Cruzain inh noDet: qHTS Assay for Promiscuous and Specific Inhibitors of Cruzain (without detergent); Potency, µM, for the others: max response, negative = inhibition, usual class: inhibitors; Cruzipain (Trypanosoma cruzi), P25779; purified cruzain, Z-FR-AMC fluorescence, no detergent; actives 2.3% (n = 200,000); AID 1476, 2009; active means well fitted curve in the direction sought with a large enough effect; inconclusive means small, poorly fitted or top-dose-only effect, or another doubt; inactive means no such curve, though single readings can be large; an effect the other way counts as inactive or inconclusive;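 further: plate controls were enzyme without inhibitor for no effect and buffer without enzyme for full effect; nearly all actives have a fitted effect of over 40% in size; top concentration of the series not given in the record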
Target sequence (P25779 123-467 limits assumed): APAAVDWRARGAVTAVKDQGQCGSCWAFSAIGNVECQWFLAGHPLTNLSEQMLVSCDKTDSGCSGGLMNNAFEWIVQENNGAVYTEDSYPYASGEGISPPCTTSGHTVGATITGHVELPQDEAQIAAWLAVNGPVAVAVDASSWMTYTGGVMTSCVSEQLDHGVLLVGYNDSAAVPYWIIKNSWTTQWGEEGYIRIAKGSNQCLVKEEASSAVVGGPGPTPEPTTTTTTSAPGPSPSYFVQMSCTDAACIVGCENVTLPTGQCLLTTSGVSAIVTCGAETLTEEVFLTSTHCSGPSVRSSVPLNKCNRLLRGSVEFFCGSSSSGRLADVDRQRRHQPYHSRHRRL
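Detergent-free condition (0.00005% Triton X-100) in acetate buffer pH 5.5 with DTT. 1.5 nM enzyme and compound were pre-mixed 15 min, then 2 uM Z-FR-AMC substrate added; reaction progress from fluorescence change between first and third reads (60 s).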
Cruzain inh Det: qHTS Assay for Promiscuous and Specific Inhibitors of Cruzain (with detergent); Cruzipain (Trypanosoma cruzi), P25779; purified cruzain, Z-FR-AMC fluorescence, 0.01% Triton; Potency, µM, inactives show max response, negative = inhibition, actives largely listed as inhibitors; actives 0.43% (n = 200,000); AID 1478, 2009; active means well fitted curve in the direction sought with a large enough effect; inconclusive means small, poorly fitted or top-dose-only effect, or another doubt; inactive means no such curve, though single readings can be large; an effect the other way counts as inactive or inconclusive;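 further: plate controls were neutral wells for no effect and buffer without enzyme for full effect; nearly all actives have a fitted effect of over 40% in size; top concentration of the series not given in the record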
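Read-out: AMC fluorescence (360 nm excitation, 450 nm emission), four reads over 2 min, first-to-third difference used. Conditions: cruzain 1.5 nM, Z-FR-AMC 2 uM, pH 5.5 acetate, 5 mM DTT, 0.01% Triton X-100.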
2A StopGo: High Throughput Screening for Foot and Mouth Disease Virus Antivirals. Potency, µM (series often up to 57.9 µM), inactives show at the highest dose signal change, negative = less light. AID 1159524, 2015. actives 1.2% (n = 410,000). human cells with a luciferase reporter of 2A StopGo recoding; control for the full effect not named in the record; active = well fitted falling curve with a large enough effect; inconclusive = small, poorly fitted or top-dose-only effect; inactive = no such curve, though single readings can be large or run the other way; tested in HEK293T cells; further: on the % scale 0 is the no-effect control and ±100 the full control effect; nearly all actives have a fitted effect of over 45% in size; luciferase light after 4 h
LASV entry inh: qHTS for Inhibitors of binding or entry into cells for Lassa Virus. Lassa virus pseudotype entry inhibition, cell reporter; control for the full effect not named in the record. Potency, µM (doses to about 37.9 µM), for the others: top-dose activity change, negative = inhibition, most hits filed as inhibitors. actives 1.2% (n = 300,000). AID 540256, 2011; active means well fitted inhibition curve with a large enough effect; inconclusive means small, poorly fitted or top-dose-only effect, or effect the other way; inactive means flat fitted curve, though single readings scatter; tested in HEK293 cells; further: on the % scale 0 is the no-effect control and ±100 the full control effect; nearly all actives have a fitted effect of over 50% in size; luciferase read-out
RE007 growth inh: qHTS Assay for Inhibitors of the HIV-1 protein Vpr; S. pombe RE007 Vpr strain, BacTiter-Glo ATP luminescence, 24 h; control for the full effect not named in the record; Potency, µM (titrated, usually from 92.2 µM), inactives show top-dose activity change, negative = less growth; actives 0.21% (n = 360,000); AID 651644, 2012; active = well fitted falling curve with a large enough effect; inconclusive = small, poorly fitted or top-dose-only effect; inactive = no such curve, though single readings can be large or run the other way;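 further: on the % scale 0 is the no-effect control and ±100 the full control effect; nearly all actives have a fitted effect of over 50% in size; the assay follows cell death caused by Vpr and the record does not say whether a fall means rescue or toxicity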
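Fission yeast strain RE007, carrying one chromosomally integrated HIV-1 vpr copy, was seeded at OD 0.01 in PMG+AL medium with 23 nL pinned compound. After 24 h at 30 °C and 99% humidity, viability was read by BacTiter-Glo luminescence.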
MARV entry inh: qHTS for inhibitors of binding or entry into cells for Marburg Virus. Marburg virus pseudotyped entry inhibition, cell reporter; control for the full effect not named in the record; about a third of the inactives were read at about 46 µM. actives 1.8% (n = 300,000). Potency, µM (titrated, usually from 37.8 µM), for the others: at the highest dose activity change, negative = inhibition, most hits filed as inhibitors; active = well fitted inhibition curve with a large enough effect; inconclusive = small, poorly fitted or top-dose-only effect, or effect the other way; inactive = flat fitted curve, though single readings scatter; tested in HEK293 cells; about a fifth of its hits are not listed in these tables; further: on the % scale 0 is the no-effect control and ±100 the full control effect; luciferase read-out
An asterisk follows results filed as active; ? = inconclusive; / = not tested or not shown; & = joins results of further samples; [ ] = another dose, or the depositor's remark. Unless noted, the call rests on the fitted dose curve; in most records, active means well fitted rising curve with a large enough effect; inconclusive means small, poorly fitted or top-dose-only effect; inactive means no such curve, though single readings can be large or run the other way. Potency means the concentration at half of the fitted maximal effect.

#1 CC(=O)Nc1ccc(S(=O)(=O)Nc2cccc(S(=O)(=O)N(C)c3ccccc3)c2)cc1
#2 COC(=O)c1cc(S(=O)(=O)NCCc2ccc(C)cc2)c[nH]1
#3 O=C(CNC(=O)c1ccco1)NC1CCCCCC1
#4 CCOC(=O)c1[nH]c(C)c(CCC(=O)NCc2ccccc2C)c1C
#5 CN(C(=O)c1ccc(N2CCCCC2)c([N+](=O)[O-])c1)C1(C)CCS(=O)(=O)C1 (stereo not given)
#6 Cn1cccc1C(=O)NNC(=O)COc1ccc(C#N)cc1
#7 Cc1ccccc1Cn1c(-c2cncs2)nc2ccccc21
#8 COc1cccc2c(=O)c3ccoc3n(C)c12
#9 CCOc1ccccc1NS(=O)(=O)c1ccc2c(c1)oc(=O)n2C
#10 Cc1cc(=O)oc2cc(OCC#N)ccc12
assay / entry	1	2	3	4	5	6	7	8	9	10
SARS PLP yeast	1%	-6%	2%	/	3%	0%	-6%	-1%	/	0%
NS1 inh	/	-4%	/	/	-3%	/	-84%	-7%	/	3%
Cruzain inh noDet	/	/	/	-14%	/	/	13%	-20%	14%	-6%
Cruzain inh Det	/	/	/	2.8%	/	/	-3.2%	-2.9%	-0.8%	0.0%
2A StopGo	-5%	9%	13%	13%	-11%	-1%	?	-5%&-13%	-7%	-16%
LASV entry inh	-10%	/	?	-19%[46.1 µM]	2%	-1%	?	/	-2%[46.1 µM]	/
RE007 growth inh	-11%	-8%	6%	/	1%	12%	15%	-20%	/	16%
MARV entry inh	?	/	?	/	19%	-2%	5%	/	2%[46.1 µM]	-2%

#11 CN1CCN(c2ccccc2NC(=O)c2ccc(Br)o2)CC1
#12 CN1C(=O)c2ccccc2Sc2ccc(NC(=O)N3CCOCC3)cc21
#13 CN(CC(=O)Nc1ccc(Cl)c(C(F)(F)F)c1)C(=O)CCNC(=O)c1ccco1
#14 N#CC(OC(=O)c1ccccc1)c1cccc([N+](=O)[O-])c1 (stereo not given)
#15 O=C(Nc1ccc2nc(SCC(=O)N3CCCc4ccccc43)sc2c1)c1cccc(Cl)c1
#16 NS(=O)(=O)c1ccc(CCNC(=O)c2ccc3c(c2)N(Cc2ccccc2)CCS3)cc1
#17 CCOC(=O)c1ccc2nc(C)cc(Nc3cccc(C(=O)O)c3)c2c1
#18 Fc1cccc(-c2nc(-c3ccncc3)no2)c1
#19 COc1ccc(CNc2ccc(Cl)cc2)cc1Cn1ccnc1
#20 N/C(=N\S(=O)(=O)c1ccc(Cl)s1)c1ccccc1
assay / entry	11	12	13	14	15	16	17	18	19	20
SARS PLP yeast	6%	4%	2%	/	/	3%	23%	/	-4%	-6%
NS1 inh	5%[9.22 µM]	3%	/	/	/	6%	?	/	-43%	-5%
Cruzain inh noDet	-5%	/	/	/	6.3µM*	/	-3%&8%	-5%	/	9%
Cruzain inh Det	-3.3%	/	/	/	-4.6%	/	-2.3%&-1.8%	1.3%	/	2.4%
2A StopGo	-14%	-8%	-5%	-1%	-20%	3%	-9%	39%[activator]	?	41%[activator]
LASV entry inh	6%	?	-2%	24%[46.1 µM]	-11%[46.1 µM]	8%[46.1 µM]	-4%[46.1 µM]	19%[46.1 µM]	-15%	0%
RE007 growth inh	9%	3%	8%	-22%	/	4%	/	/	-9%	1%
MARV entry inh	-16%	?	2%	?	?	0%[46.1 µM]	0%[46.1 µM]	/	?	-9%&-9%

#21 CCN(CC)S(=O)(=O)c1ccc(-c2nnc3sc4cccc(C)c4n23)cc1
#22 CSc1ncc(C(=O)Nc2ccc(C(C)=O)cc2)c(-c2ccccc2)n1
#23 O=[N+]([O-])c1cccc(CNc2ccc3c(c2)CCC3)c1
#24 Cc1ccsc1C(C(=O)NC1CCCCC1)N(C(=O)c1csnn1)C1CC1 (stereo not given)
#25 CCCCCC(=O)N1CCCCC1
#26 CCOC(=O)COc1ccc(C)cc1-c1ccno1
#27 Cc1ccc2cc(/C=N/NC(=O)CN3CCCCC3)c(Cl)nc2c1
#28 CCc1nc(Nc2ccc3c(c2)OCCO3)c2oc3ccccc3c2n1
#29 CC(=O)Nc1cccc(C(=O)OC(C)C(=O)NC(=O)NC2CCCCC2)c1 (stereo not given)
#30 CCS(=O)(=O)c1nc(S(=O)(=O)c2ccc(Cl)cc2)c(NCCCN2CCOCC2)s1
assay / entry	21	22	23	24	25	26	27	28	29	30
SARS PLP yeast	-3%	2%	-50%	10%	15%	-7%	3%	-10%	-3%	-3%
NS1 inh	-25%	10%	5%	?	-2%	-9%	-2%	-1%	/	-17%
Cruzain inh noDet	-30%	/	-12%	-8%	/	-15%	/	-5%	/	/
Cruzain inh Det	-5.4%	/	-9.1%	1.8%	/	?	/	-14%	/	/
2A StopGo	?	20%&11%	16%	28%	9%	20%	26%	0%	-13%	-7%
LASV entry inh	/	15%[46.1 µM]	0%	24%	-10%	15%	8%	-25%	-13%	/
RE007 growth inh	-7%	4%	-15%	10%	1%	-5%	-21%	-18%	6%	4%
MARV entry inh	/	/	1%	0%	3%[46.1 µM]	-3%	?	-50%	?	/

Whole records, quoted from the list.
Record of Cc1ccsc1C(C(=O)NC1CCCCC1)N(C(=O)c1csnn1)C1CC1 (stereo not given) = SARS PLP yeast: 10%; NS1 inh: ?; Cruzain inh noDet: -8%; Cruzain inh Det: 1.8%; 2A StopGo: 28%; LASV entry inh: 24%; RE007 growth inh: 10%; MARV entry inh: 0%
Record of CCN(CC)S(=O)(=O)c1ccc(-c2nnc3sc4cccc(C)c4n23)cc1 = SARS PLP yeast: -3%; NS1 inh: -25%; Cruzain inh noDet: -30%; Cruzain inh Det: -5.4%; 2A StopGo: ?; LASV entry inh: /; RE007 growth inh: -7%; MARV entry inh: /
Record of CSc1ncc(C(=O)Nc2ccc(C(C)=O)cc2)c(-c2ccccc2)n1 = SARS PLP yeast: 2%; NS1 inh: 10%; Cruzain inh noDet: /; Cruzain inh Det: /; 2A StopGo: 20%&11%; LASV entry inh: 15%[46.1 µM]; RE007 growth inh: 4%; MARV entry inh: /

(next part)
#31 CC(C)CCNC(=O)C(c1cccnc1)N(CCc1ccccc1)C(=O)Cn1nnc2ccccc21 (stereo not given)
#32 COc1cccc(NC(=O)NCc2cccn2C)c1
#33 O=C(OCC1COc2ccccc2O1)c1c(F)cccc1F (stereo not given)
#34 CCC(C)[C@H](NC(=O)[C@@H]1Cc2c([nH]c3ccccc23)C2c3ccccc3C(=O)N21)C(=O)NCC1CCCO1 (stereo not given in full)
#35 COCCCC1CCN(C(=O)C2CCC(=O)N(C3CCCCCC3)C2)CC1 (stereo not given)
#36 CC(=O)c1cc(C#N)c(SCc2ccc(F)cc2)nc1C
#37 CCOc1ccccc1-n1nnnc1SCC(=O)Nc1cc2oc3ccccc3c2cc1OC
#38 O=C1NCCN1CCNS(=O)(=O)c1ccc2ccccc2c1
#39 CC(C)C(=O)N1CCN(c2ccc(NC(=O)c3ccc([N+](=O)[O-])o3)cc2Cl)CC1
#40 COc1ccc(C(=O)NNC(=O)c2cc3cccc(OC)c3oc2=O)cc1
assay / entry	31	32	33	34	35	36	37	38	39	40
SARS PLP yeast	3%	-1%	5%	2%	0%	0%	0%	0%	-2%	0%
NS1 inh	5%	?	-14%	-3%	1%	5%	4%	7%	/	/
Cruzain inh noDet	-14%	2%	-7%	/	/	-6%	7.9µM*	-5%	/	/
Cruzain inh Det	-2.4%	-1.1%	-2.2%	/	/	1.1%	3.6%	1.8%	/	/
2A StopGo	-3%	58%[activator]	/	-19%	-11%	-4%	/	34%[activator]	25µM*	-5%
LASV entry inh	?	19%	13%	/	6%	13%	?	11%	?	15%
RE007 growth inh	8%	-28%	-4%	-12%	30%	-2%	13%	-5%	?	-8%
MARV entry inh	?	?	13%	/	-11%	13%[46.1 µM]	?	-2%	?	19%[46.1 µM]

#41 COc1cc(OC)nc(/N=C/NO)n1
#42 COC(=O)c1nn(C23CC4CC(CC(C4)C2)C3)c2c1C(=O)N(c1ccc(F)cc1)C2=O
#43 COc1ccc(C(=O)n2nc(-c3cccnc3)nc2NCc2ccccc2)cc1OC
#44 O=[N+]([O-])/C(=C\Nc1ccccc1Cl)S(=O)(=O)c1ccccc1
#45 COc1ccc(C(=O)NC(=S)Nc2ccc(N3CCOCC3)c(Cl)c2)cc1[N+](=O)[O-]
#46 CCCCN(C(=O)c1c(C)[nH]c(C(=O)OCC)c1C)c1ccccc1
assay / entry	41	42	43	44	45	46
SARS PLP yeast	0%	-6%	/	4%	0%	0%
NS1 inh	2%	-10%	/	-39%	20%	-10%
Cruzain inh noDet	/	13%	-3%	-7%	?	?
Cruzain inh Det	/	-3.1%	-3.1%	-2.9%	-8.3%	3.2%
2A StopGo	-4%	-11%	-9%	/	0%	-8%
LASV entry inh	?	-2%	?	/	5%	2%
RE007 growth inh	-8%	4%	/	/	0%	10%
MARV entry inh	?	12%	10%[46.1 µM]	2%	?	-25%
